Compound activity deposited in PubChem by several laboratories.
CSC inhib – cancer stem cell inhibition; hit rate 1.1% among 300,000; inhibition, % at 7.5 µM; AID 2717; cancer stem cell-like cells viability, luminescence;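 active = mean at 75% or more and at least half the replicates too; inconclusive = mean and replicates disagree; tested in HMLE shEcad cells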;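 note: 0% = median of negative and 100% = median of positive control wells; the first replicate is given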
eIF4H inh – inhibitors of RNA binding by human eIF4H. Q15056. eIF4H fluorescence polarization binding assay. inhibition, % at 35 µM. hit rate 0.94% among 290,000. AID 2012;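 active = 50% or more with normal probe brightness, or confirmed in later tests; inconclusive = above 50% with abnormal brightness, or retests that disagree; inactive = below 50% or failed in later tests; about a fifth of its hits are not listed in these tables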;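 note: calls also rest on retests at 20 µM and on dose response follow-up; 0% = protein and probe with vehicle and 100% = probe without protein; strong numbers were not always called active; many hits fall short of the cut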
Rce1 inh – yeast Ras-converting enzyme inhibition; Q03530; yeast membranes, quenched prenylated peptide cleavage fluorescence; calls only; hit rate 0.27% among 290,000;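 active = fall in fluorescence gain of 50% or more versus controls, with final raw signal at or below 3038400; inconclusive = same 50% fall but final raw signal above 3038400; inactive = fall in fluorescence gain under 50%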;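 note: plate controls were neutral control wells for no effect and wells lacking membranes for full effect; tested at 10 µM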
Target sequence (Q03530 whole entry, looked up): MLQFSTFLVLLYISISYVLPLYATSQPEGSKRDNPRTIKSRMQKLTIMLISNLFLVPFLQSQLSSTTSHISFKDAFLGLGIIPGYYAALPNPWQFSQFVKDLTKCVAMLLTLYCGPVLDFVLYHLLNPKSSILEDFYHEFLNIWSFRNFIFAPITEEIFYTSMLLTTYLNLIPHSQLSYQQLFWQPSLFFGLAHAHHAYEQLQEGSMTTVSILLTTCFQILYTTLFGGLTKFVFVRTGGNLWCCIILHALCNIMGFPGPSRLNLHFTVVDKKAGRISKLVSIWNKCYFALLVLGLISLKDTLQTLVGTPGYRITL
UUG fidelity – yeast start codon fidelity modulation | hit rate 0.13% among 350,000 | S. cerevisiae UUG-firefly luciferase reporter, luminescence/redox ratio | activity score, % at 18.7 µM;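 active = replicate mean at a twofold rise or more, about +100% in these data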;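 note: firefly luciferase made from a UUG start codon reports start codon fidelity; reporter light over untreated wells divided by growth signal over untreated wells; some hits fall short of that in this replicate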
MT1-MMP act inh – blocks activation of human MT1-MMP. HT1080 RFP-PRO-GFP cells, GFP/RFP ratio fluorescence, overnight; percent of plate control window, DMSO zero. GFP/RFP ratio change, % at 20 µM. hit rate 0.061% among 360,000;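 active = GFP/RFP ratio change of at least 30% with cell ATP level not reduced by more than half and red fluorescence within 50% of control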; note: strong numbers were not always called active
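Read-out: GFP/RFP fluorescence ratio; Test system: RFP-PRO-GFP reporter HT1080 cells; Compound dosing: single-point 20 µM compound, 1% DMSO; Times: overnight compound exposure at 37 °C.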
HIV Env fusion – inhibitors of HIV Env-mediated cell fusion; AID 651610; inhibition, % at 12.3 µM; hit rate 1.1% among 360,000; HeLa-JRFL Env/CEM21 cell fusion, luciferase;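 active = mean replicate inhibition score of at least 50 and every replicate individually at or above 50; inconclusive = only one of the two criteria met; inactive = mean below 50 and not all replicates reaching 50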;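 note: 0% = plate neutral controls and 100% = maraviroc near 300 nM; one replicate is shown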
PABP FP inh – PABP-poly(A) binding inhibition | P11940 | PABP-poly(A) RNA binding, fluorescence polarization | inhibition, % at 35 µM | hit rate 1% among 290,000 | AID 2014;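 active = 50% or more with normal probe brightness, or confirmed in later tests; inconclusive = above 50% with abnormal brightness, or retests that disagree; inactive = below 50% or failed in later tests; about a fifth of its hits are not listed in these tables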;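 note: calls also rest on retests at 20 µM and on dose response follow-up; controls were probe without protein and protein plus probe with vehicle; some compounds called inactive have numbers as strong as hits; many hits fall short of the cut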
Target sequence (P11940 whole entry, looked up): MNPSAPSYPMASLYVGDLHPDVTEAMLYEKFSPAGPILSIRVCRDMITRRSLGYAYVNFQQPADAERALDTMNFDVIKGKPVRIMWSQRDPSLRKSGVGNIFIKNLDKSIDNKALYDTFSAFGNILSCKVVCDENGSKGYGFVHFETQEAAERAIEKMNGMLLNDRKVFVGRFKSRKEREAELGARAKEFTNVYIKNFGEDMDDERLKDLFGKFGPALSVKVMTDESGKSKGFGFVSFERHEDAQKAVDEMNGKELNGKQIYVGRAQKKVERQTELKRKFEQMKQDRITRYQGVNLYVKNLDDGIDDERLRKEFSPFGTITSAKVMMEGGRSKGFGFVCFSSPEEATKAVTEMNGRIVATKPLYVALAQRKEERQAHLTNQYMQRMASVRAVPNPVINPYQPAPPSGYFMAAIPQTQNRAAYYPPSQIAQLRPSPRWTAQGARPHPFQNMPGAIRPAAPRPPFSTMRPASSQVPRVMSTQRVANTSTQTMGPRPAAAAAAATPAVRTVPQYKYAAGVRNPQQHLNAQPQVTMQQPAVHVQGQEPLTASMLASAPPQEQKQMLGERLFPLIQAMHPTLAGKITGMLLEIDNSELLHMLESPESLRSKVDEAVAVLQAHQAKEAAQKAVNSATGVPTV
eIF4H inh retest – second read-out of eIF4H inh, no call of its own (marks repeat the call); inhibition, %; compound at 20 µM; confirmation average;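 mean of two retest wells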
PABP FP inh retest – second read-out of PABP FP inh, no call of its own (marks repeat the call); inhibition, %; compound at 20 µM; confirmation repeats;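 mean of two retest wells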
MT1-MMP act inh RFP – recorded beside MT1-MMP act inh, whose call it bears; RFP signal change, %; measured here: RFP expression control read;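 0 = vehicle wells; hits needed this value within 50% of zero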
Active calls of the source: *; i = inactive; ? = inconclusive; · = no result given; & = joins results of further samples.

SMILES	CSC inhib	eIF4H inh	Rce1 inh	UUG fidelity	MT1-MMP act inh	MT1-MMP act inh RFP	HIV Env fusion	PABP FP inh	others
COc1ccc(N/C=C(\C2OC(=O)c3ccccc32)[N+](=O)[O-])cc1 (configuration not stated)	1	21	i	-10	0	-1	18	-6
COCC(=O)OCn1nnc2ccccc2c1=O	20	-3	i	-20	-4	-1	·	-1
NC(=O)C[n+]1cccc(C(=O)Nc2ccccc2)c1	-18	13	i	0	-4	1	-3	35
C[C@](N)(Cc1ccc(O)c(O)c1)C(=O)O	·	96	·	-21	2	8	20	2	eIF4H inh retest=1;PABP FP inh retest=13
COc1ccc(CCNC(=O)Nc2ccc3c(c2)c(=O)n(C)n3Cc2ccc(F)cc2)cc1OC	·	·	·	1	4	-11	12	·
CCOc1ccc2nc(SCC(=O)NCc3ccco3)sc2c1	-3	-7	i	-13	-23	1	-88	12
O=c1c2ccccc2nc(COc2ccccc2)n1/N=C/c1c[nH]c2ccccc12	16	-1	i	-16	-2	-2	8	15
CCOc1cccc(C2C(C#N)=C(N)Oc3cc(C)n(Cc4ccccn4)c(=O)c32)c1OCC (configuration not stated)	-7	3	i	-5	-5	-1	·	6
Cc1cc(C(=O)OCC(=O)Nc2ccccc2F)c(C)o1	-1	0	i	-12	2	3	-28	-2
Cc1cccc(OCC(=O)Nc2nnc(-c3ccco3)s2)c1	19	33	i	·	4	10	-17	19
CN1CCN(S(=O)(=O)c2ccc(C(=O)NC3CCCCC3)cc2)CC1	·	·	·	-20	-2	3	0	·
COc1cc(/C=N/NC(=O)CC2(C)OCCCO2)ccc1OCc1ccc(Cl)cc1Cl	5	11	i	·	-3	-1	-76	-8
Cc1c(Cc2ccccc2)c(=O)oc2cc(OCC(=O)NCC(O)c3ccccc3)ccc12 (configuration not stated)	2	-12	i	-15	6	-7	-10	-2
COc1ccccc1C(=O)NNC(=O)c1ccc(NS(=O)(=O)c2cccs2)cc1	·	5	i	-7	-6	-3	6	-1
Cc1cc(C(=O)OCC(=O)NC(=O)NC(C)(C)C)c(C)o1	1	-9	i	-8	-4	2	·	4
CON(C)S(=O)(=O)c1ccc2c(c1)N(Cc1ccc(C)cc1)C(=O)C1CCCN21 (configuration not stated)	-9	1	i	·	7	9	-7	-12
C[C@H](CO)N1C[C@H](C)[C@@H](CN(C)Cc2ccccc2)OCc2cnnn2CCCC1=O	·	·	·	-12&-15	10	10	32	·
CCC(C)(C)n1nnnc1C(CC(C)C)N1CCC(C(N)=O)CC1 (configuration not stated)	-3	5	i	-6	-3	-3	·	-1
CSC1=NSC2=NC(=O)/C(=C\c3ccc(OC(=O)c4ccco4)cc3)C(=N)N12	5	6	i	-7	-7	3	3	0
CCN1CCN(C(=O)c2ccc(C(F)(F)F)cc2)CC1	-20	-4	i	·	4	6	-10	-15
COc1ccc(OCC(=O)OCCN2C(=O)c3ccccc3C2=O)cc1	-16	36	i	-11	2	5	-17	-2
CC(C)(C)NC(=O)CSC(=Nc1cccc(F)c1)NC#N	-5	6	i	-7	-47	10	-14	12
CCc1ccccc1N1CC23C=CC(O2)C(C(=O)O)C3C1=O (configuration not stated)	1	-2	i	0	2	5	-3	-17
CCOCCCNc1c2c(nc3cc(-c4ccc(F)cc4)nn13)CCC2	-3	-6	i	·	2	1	-1	0
COc1ccc(C(=O)c2nccc3cc(OC)c(OC)cc23)cc1OC	3	·	·	-27	-5	4	·	·
O=C(NCC1CCCO1)C1CCN(S(=O)(=O)c2cccnc2)CC1 (configuration not stated)	3	-3	i	-3	2	1	·	2
O=C(NCC1CCCO1)C(=O)N/N=C/c1ccc(O)c(Cl)c1 (configuration not stated)	3	-4	i	-11	-3	-1	-15	-2
O=C(CSC1=N/C(=C/c2ccc(Cl)c(Cl)c2)C(=O)N1c1ccccc1F)NC1CC1	15	-4	i	·	-22	-21	·	-6
Cc1cc(C)n2cc(COc3ccc4ccccc4c3)nc2n1	-1	6	i	·	6	2	-56	2
OCCC1CN(Cc2cc(F)ccc2-n2cccn2)CCN1Cc1ccc(F)cc1 (configuration not stated)	-4	1	i	-15	0	3	-9	10
O=C1/C(=C/c2cccnc2)Oc2cc(OS(=O)(=O)c3ccc(Cl)cc3)ccc21	12	-14	i	-17	-7	-17	-39	-4
CC(=O)C[C@@H](O)CC(=O)[C@@H]1OC(=O)[C@@H](C)C/C=C\Cc2ccccc21	·	·	·	5	-3	6	-11	·
Cc1noc(C)c1NC(=O)N(C)C[C@@H]1Oc2c(NC(=O)c3ccncc3)cccc2C(=O)N([C@H](C)CO)C[C@@H]1C	-7	·	·	-9&0	3	6	-1	·
CC(Sc1ccccc1)C(=O)NN=C1CCN(C)CC1 (configuration not stated)	-3	0	i	·	5	6	-2	17
O=C(/C=C/c1ccc(F)cc1)N1CC[C@@]2(O)CCCC[C@H]2C1	-5	1	i	-1	0	0	4	13
Cc1ccc(S(=O)(=O)N(C)CC(=O)OCC(=O)c2ccc3c(c2)NC(=O)CO3)cc1	-6	·	·	-1	4	3	·	·
N#C/C(=C\c1ccc(OC(F)F)cc1)C(=O)N1CCCCC1	-5	11	i	5	-3	-6	7	-9
CC(=O)Nc1ccc(NC(=O)COc2ccc(Cl)cc2Cl)cc1	8	-1	i	-8	5	5	-10	5
O=S1(=O)C[C@H](N2CCC(Cc3ccccc3)CC2)[C@@H](COCc2ccccc2)N1	·	·	·	12	0	-8	26	·
Cc1c(P(=O)(c2ccccc2)c2ccccc2)c2ccccc2n1C	·	·	·	173*	-3	4	-10	·
COc1ccc(N(C(=O)CNC(=O)c2ccco2)C(C(=O)NC2CCCCC2)c2ccco2)cc1 (configuration not stated)	·	-11	i	-4	2	11	·	-9
O=c1ccc(-c2ccc(S(=O)(=O)NCC3CCN(Cc4cccc(F)c4)CC3)s2)n[nH]1	11	-7	i	-15	2	4	-12	5
CNC(=O)C(C)c1ncc(C(F)(F)F)cc1Cl (configuration not stated)	-2	5	i	·	1	4	-12	-4
c1ccc(CSc2ccc(-c3ccccn3)nn2)nc1	-1	-7	i	·	4	6	-5	-15
Cc1ccc(NC(=O)c2ccc(S(=O)(=O)N3CCC(C)CC3)cc2)nc1	-5	·	i	-15	-6	-22	·	·
Fc1cccc(NC(=S)NNc2c3ccccc3nc3ccccc23)c1	·	8	i	·	15	-17	11	-6
Cn1c(=O)n(C)c2cc(/C=C3/NC(=O)N(Cc4ccccc4)C3=O)ccc21	-11	5	i	-4	16	8	33	6
Cc1cccc(C)c1NC(=O)c1ccc(OCc2c(C)noc2C)cc1	0	·	·	-7	6	7	·	·
CCOc1cc(C2C(C#N)=C(N)Oc3cc(N)ccc32)ccc1O (configuration not stated)	11	0	i	-18	-4	2	4	15
COc1cc2c(cc1NC(=O)c1cc(-c3ccncc3)nc3ccccc13)oc1ccccc12	42	-7	i	·	-12	-9	20	-11
COc1ccc(S[C@@H](CCN2CC[C@H](O)CCC2=O)c2ccccc2)cc1	-10	·	·	4	-2	-1	-14	·
COc1cccc(C(=O)N/N=C/c2ccc(OC)c(COc3ccccc3C(N)=O)c2)c1	17	-5	i	-1	-1	1	10	-2
CC1CC1C(=O)NCCc1ccc(Cl)cc1 (configuration not stated)	-1	1	i	-15	2	-3	-12	2
N#CC1=C(N)N2C(=C(C#N)C13CCCCC3)SC1CCCCC12O (configuration not stated)	-5	-16	i	-2	3	-1	32	3
O=C(O)C1CSC2c3ccccc3C(=O)N12 (configuration not stated)	-18	-1	i	-9	0	1	·	14
COCCNC(=O)CSc1nc(-c2ccccc2)c(-c2ccccc2)o1	6	7	i	10	4	-5	·	3
CCCCN(C)CCN1C(=O)C2C(C(=O)Nc3ccc(OC)cc3)C3C=CC2(O3)C1C(=O)NC1CCCCC1 (configuration not stated)	21	4	·	12	2	5	-4	10
CCOC(=O)c1c(NC(=O)Cn2nnc3ccccc32)sc2c1CCC(C)C2 (configuration not stated)	20	-6	i	-20	-9	-20	·	-8
Cc1ccccc1C(=O)NCC(=O)Nc1ccccc1C(F)(F)F	-11	2	i	-3	4	1	7	0
Cc1nn(Cc2ccc(Cl)cc2)c(C)c1NC(=O)c1noc2c1CCCCC2	-10	10	i	13	-1	-15	·	0

An excerpt from above in order of number of heavy atoms, low to high.
SMILES	CSC inhib	eIF4H inh	Rce1 inh	UUG fidelity	MT1-MMP act inh	MT1-MMP act inh RFP	HIV Env fusion	PABP FP inh	others
CCC(C)(C)n1nnnc1C(CC(C)C)N1CCC(C(N)=O)CC1 (configuration not stated)	-3	5	i	-6	-3	-3	·	-1
CN1CCN(S(=O)(=O)c2ccc(C(=O)NC3CCCCC3)cc2)CC1	·	·	·	-20	-2	3	0	·
Cc1cccc(C)c1NC(=O)c1ccc(OCc2c(C)noc2C)cc1	0	·	·	-7	6	7	·	·

The listing continues:
SMILES	CSC inhib	eIF4H inh	Rce1 inh	UUG fidelity	MT1-MMP act inh	MT1-MMP act inh RFP	HIV Env fusion	PABP FP inh	others
CC(=O)Nc1ccc(NC(=O)COC(=O)c2ccc(C)s2)cc1	-12	-7	i	-5	1	0	-14	2
Cc1ccc(-n2nnnc2SCC(=O)Nc2ccc3c(c2)COC3=O)cc1C	4	0	i	-2	-49	1	·	2
COC(=O)c1ccc(OC)c(CSc2nnc(-c3ccc(C)cc3)o2)c1	·	·	·	-6	0	1	-3	·
COc1ccccc1OC(=O)C1CC(=O)N(c2ccc(Cl)cc2)C1 (configuration not stated)	36	-2	i	9	4	4	-41	-4
Cc1cc(C(=O)NCc2cccnc2)n(-c2ccccc2)n1	11	-3	i	-23	0	2	-17	-6
Cc1ccccc1N1CC(C(=O)Nc2nnc(SCc3cccnc3)s2)CC1=O (configuration not stated)	-6	4	i	16	-1	4	-8	9
CNC(=O)COC(=O)c1ccc(NS(=O)(=O)c2ccc3c(c2)OCCO3)cc1	-2	-3	i	·	1	-1	7	-5
COc1ccc(C(=O)Nc2ccc(N3CCN(C(=O)c4cccs4)CC3)cc2)cc1Br	16	-9	i	-9	-1	-17	3	12
Cc1ccc(C)c(S(=O)(=O)N2CCCCC2CCNC(=O)C(=O)NCc2ccccn2)c1 (configuration not stated)	-9	·	i	·	3	-6	4	·
COc1ccc(CN2C(=O)Cc3c2nc(N)c2c(N)nc(N4CCOCC4)c(C#N)c32)cc1	2	?	i	·	0	4	6	47
CSc1ccccc1-n1nnnc1SCC(=O)Nc1cc(C)ccc1C	-4	-2	i	-9	-6	-6	27	-12
N#Cc1ccc(N2C(=O)[C@@H]3C(C(=O)C(c4ccccc4)c4ccccc4)=NN[C@@H]3C2=O)cc1	-1	-4	i	·	1	-4	-26	-4
Cn1c(C(C#N)C(=O)Cc2cccc3ccccc23)nc2ccccc21 (configuration not stated)	-17	1	i	·	1	5	·	7
CC(C)N(Cc1ccccc1)C(=O)COC(=O)c1cc[n+]([O-])cc1	-11	·	·	-17	3	4	-1	·
CCOC(=O)c1ccccc1NC(=O)c1ccc2nc[nH]c2c1	-1	10	i	-29	-1	-2	2	11
O=C(NCCc1cccs1)c1ccc(Cl)c(Cl)c1	-15	4	i	·	-3	-2	-54	-2
O=C(/C=C/c1ccccc1)NC(=O)c1ccccc1O	8	3	i	-7	-2	-4	-65	-6
CCOC(=O)C1CCCN(C(=O)CC(C)c2ccccc2)C1 (configuration not stated)	-4	-6	i	·	0	1	·	-16
Cc1ccc(C(=O)Nc2ccccc2N2CCCC2)cc1S(=O)(=O)N1CCOCC1	-17	·	·	2	-2	-2	14	·
